Screening results: PubChem, National Center for Advancing Translational Sciences (NCATS)
SARS PLP yeast: qHTS of Yeast-based Assay for SARS-CoV PLP; S. cerevisiae expressing SARS-CoV PLpro, growth rescue; control for the full effect not named in the record; Potency, µM (highest dose often 32.9 µM), inactives show at the top dose activity, positive = growth rescue; 0.19% of 330,000 active; AID 485353, 2010; active means well fitted rising curve with a large enough effect; inconclusive means small, poorly fitted or top-dose-only effect; inactive means no such curve, though single readings can be large or run the other way; also: 0% is about no effect; nearly all actives have a fitted effect of over 55% in size; growth read by luminescence after 48 h
RE007 growth inh: qHTS Assay for Inhibitors of the HIV-1 protein Vpr; S. pombe RE007 Vpr strain, BacTiter-Glo ATP luminescence, 24 h; control for the full effect not named in the record; Potency, µM (top dose mostly 92.2 µM), for inactives: at the top dose activity change, negative = less growth; 0.21% of 360,000 active; active = well fitted falling curve with a large enough effect; inconclusive = small, poorly fitted or top-dose-only effect; inactive = no such curve, though single readings can be large or run the other way;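 also: % is scaled to controls: 0 for no effect and ±100 for the full control effect; nearly all actives have a fitted effect of over 50% in size; the assay follows cell death caused by Vpr and the record does not say whether a fall means rescue or toxicity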
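Fission yeast strain RE007, carrying one chromosomally integrated HIV-1 vpr copy, was seeded at OD 0.01 in PMG+AL medium with 23 nL pinned compound. After 24 h at 30 °C and 99% humidity, viability was read by BacTiter-Glo luminescence.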
MARV entry inh: qHTS for inhibitors of binding or entry into cells for Marburg Virus; Marburg virus pseudotyped entry inhibition, cell reporter; control for the full effect not named in the record; about a third of the inactives were read at about 46 µM; Potency, µM (series often up to 37.8 µM), inactives show at the highest dose activity change, negative = inhibition, usual class: inhibitors; 1.8% of 300,000 active; active = well fitted inhibition curve with a large enough effect; inconclusive = small, poorly fitted or top-dose-only effect, or effect the other way; inactive = flat fitted curve, though single readings scatter; tested in HEK293 cells; about a fifth of its hits are not listed in these tables; also: % is scaled to controls: 0 for no effect and ±100 for the full control effect; luciferase read-out
LASV entry inh: qHTS for Inhibitors of binding or entry into cells for Lassa Virus | Lassa virus pseudotype entry inhibition, cell reporter; control for the full effect not named in the record | Potency, µM (titrated, usually from 37.9 µM), without a hit: at the highest dose activity change, negative = inhibition, hits mostly inhibitors | 1.2% of 300,000 active | AID 540256, 2011; active means well fitted inhibition curve with a large enough effect; inconclusive means small, poorly fitted or top-dose-only effect, or effect the other way; inactive means flat fitted curve, though single readings scatter; tested in HEK293 cells; also: % is scaled to controls: 0 for no effect and ±100 for the full control effect; nearly all actives have a fitted effect of over 50% in size; luciferase read-out
2A StopGo: High Throughput Screening for Foot and Mouth Disease Virus Antivirals; 1.2% of 410,000 active; AID 1159524, 2015; human cells with a luciferase reporter of 2A StopGo recoding; control for the full effect not named in the record; Potency, µM (top dose mostly 57.9 µM), for the others: at the top dose signal change, negative = less light; active = well fitted falling curve with a large enough effect; inconclusive = small, poorly fitted or top-dose-only effect; inactive = no such curve, though single readings can be large or run the other way; tested in HEK293T cells; also: % is scaled to controls: 0 for no effect and ±100 for the full control effect; nearly all actives have a fitted effect of over 45% in size; luciferase light after 4 h
Cruzain noTriton: qHTS Assay for Promiscuous and Specific Inhibitors of Cruzain (without detergent). purified cruzain, Z-FR-AMC fluorescence, no detergent. Potency, µM, for inactives: max response, negative = inhibition, most hits filed as inhibitors. 2.3% of 200,000 active. AID 1476, 2009;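 also: plate controls were enzyme without inhibitor for no effect and buffer without enzyme for full effect; nearly all actives have a fitted effect of over 40% in size; top concentration of the series not given in the record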
Target sequence (P25779 123-467 limits assumed): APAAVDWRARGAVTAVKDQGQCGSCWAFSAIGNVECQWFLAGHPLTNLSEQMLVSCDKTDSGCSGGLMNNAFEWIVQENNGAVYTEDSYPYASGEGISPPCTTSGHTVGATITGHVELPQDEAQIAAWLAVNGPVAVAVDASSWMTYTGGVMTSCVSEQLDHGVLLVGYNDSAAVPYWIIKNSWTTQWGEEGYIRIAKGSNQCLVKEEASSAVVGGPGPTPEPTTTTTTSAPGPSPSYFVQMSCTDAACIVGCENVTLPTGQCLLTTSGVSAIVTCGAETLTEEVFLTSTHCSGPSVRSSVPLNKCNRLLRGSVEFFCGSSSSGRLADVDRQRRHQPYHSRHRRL
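Purified cruzain at 1.5 nM, pre-incubated 15 min with compound at room temperature in 100 mM sodium acetate pH 5.5, 5 mM DTT, 0.00005% Triton X-100. Reaction started with 2 uM Z-FR-AMC; AMC fluorescence increase over 60 s gives rate.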
NS1 function inh: qHTS Assay for Inhibitors of Influenza NS1 Protein Function; S. cerevisiae slowed by influenza A NS1, growth recovery by OD600; Potency, µM (doses to about 46.1 µM), for the others: at the highest dose activity, positive = more growth; 0.4% of 270,000 active; active means well fitted rising curve with a large enough effect; inconclusive means small, poorly fitted or top-dose-only effect; inactive means no such curve, though single readings can be large or run the other way; also: nearly all actives have a fitted effect of over 50% in size
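Read-out: OD600 growth recovery of NS1-expressing budding yeast. Cells grown overnight at 30C in -URA glucose medium, washed, resuspended and diluted 1:100 in 2% galactose assay medium, pH 6.0. Same strain lacking NS1 served as positive control.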
Cruzain Triton: qHTS Assay for Promiscuous and Specific Inhibitors of Cruzain (with detergent). 0.43% of 200,000 active. Potency, µM, for the others: max response, negative = inhibition, actives largely listed as inhibitors. AID 1478, 2009. purified cruzain, Z-FR-AMC fluorescence, 0.01% Triton. Cruzipain (Trypanosoma cruzi), P25779;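 also: plate controls were neutral wells for no effect and buffer without enzyme for full effect; nearly all actives have a fitted effect of over 40% in size; top concentration of the series not given in the record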
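Read-out: AMC fluorescence (360 nm excitation, 450 nm emission), four reads over 2 min, first-to-third difference used. Conditions: cruzain 1.5 nM, Z-FR-AMC 2 uM, pH 5.5 acetate, 5 mM DTT, 0.01% Triton X-100.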
Starred values were filed as active, the others as inactive; ? = inconclusive; · = no result given; & = joins results of further samples; [ ] = dose if it differs, or a comment. Unless noted, calls follow the shape of the dose curve; as a rule, active = well fitted curve in the direction sought with a large enough effect; inconclusive = small, poorly fitted or top-dose-only effect, or another doubt; inactive = no such curve, though single readings can be large; an effect the other way counts as inactive or inconclusive. Potency is read from the fitted curve at half-maximal effect.

SMILES | SARS PLP yeast | RE007 growth inh | MARV entry inh | LASV entry inh | 2A StopGo | Cruzain noTriton | NS1 function inh | Cruzain Triton
COc1ccc(CNC(=O)c2csc(Cc3ccc(Cl)cc3)n2)cc1 | -12% | -10% | -27% | ? | -27% | 11% | -43% | -1.3%
CCOC(=O)N1CCN(c2c(-c3ccccc3)c3cc(Cl)ccc3[nH]c2=O)CC1 | 10% | -4% | 3% | ? | -25% | ? | ? | -7.8%
CCOc1ccc2nc(NC(=O)c3ccc(OCC4CCCO4)cc3)sc2c1 (centres undefined) | 12% | -13% | -30%[46.1 µM] | -14% | 18µM* | 13% | 1% | -10%
O=C(CSc1ccccc1)NC1CCCCCC1 | -1% | 6% | · | · | 42%[activator] | · | -2% | ·
CCC(=O)NC(Nc1ncc(C)s1)(C(=O)OC)C(F)(F)F (centres undefined) | ? | -2% | -4% | 4% | 20% | 5% | 0% | -3.3%
CC/C(=N\Nc1ccccc1)c1c(O)n(-c2ccccc2)c(=O)[nH]c1=O | -2% | 129% | -19% | 10µM* | -30% | · | 0% | ·
COc1cccc(CNCCSc2nnnn2C)c1OCc1ccccc1F | · | · | ? | ? | -20% | -1% | · | 0.3%
CCNC(=O)CSc1nc2cc([N+](=O)[O-])ccc2n1-c1cccc(C(F)(F)F)c1 | -18% | -13% | -4% | 9% | -13% | 8% | -7% | -9.4%
Cc1ccc(-c2ccc(CCC(=O)O)n2Cc2ccco2)cc1 | -3% | 7% | -3%[46.1 µM] | -21% | 7% | -5% | -55% | -9.2%
CC1CCN(C(=O)Cn2c(=O)oc3ccccc32)CC1 | -2% | 11% | 14%[46.1 µM] | 13% | 2% | -6% | 3.5µM* | -0.6%
Cc1ccc(C(NC(=O)N2CCCC2)C(Cl)(Cl)Cl)cc1F (centres undefined) | 4% | 15% | 21%[46.1 µM] | 9% | ? | · | · | ·
O=C1c2ccccc2NC2(CCCCC2)N1N=C1CCCCC1 | -9% | 10% | 7% | 13% | -12% | 2% | -1% | -5.6%
Cc1nc(-c2ccc(S(=O)(=O)N3CCN(c4cccc(Cl)c4)CC3)cc2)co1 | · | · | · | -17%[46.1 µM] | -14% | -13% | · | -7.4%
O=C(O)c1ccccc1C(=O)NCCCCCCNC(=O)c1ccccc1C(=O)O | 0% | 3% | 8% | 0% | -19% | · | -1% | ·
CCN(C(=O)c1ccc(C)c(Br)c1)c1ccccc1 | 6% | -13% | -11%[46.1 µM] | ? | -24% | · | · | ·
COc1ccc(/C=C(/C#N)C(=O)NC2CCCCC2)cc1Br | -7% | 2% | ? | -13% | -28% | 3% | 3% | 0.5%
CN(C)C(=O)CSc1cnc2ccccc2n1 | 0% | -3% | -1%[46.1 µM] | -4%[46.1 µM] | 5% | · | · | ·
CC(=O)Nc1nc2c(s1)C(=O)NCC(C)(C)C2 | 1% | 1% | 2% | 20% | -13% | · | 1% | ·
Cc1cnc(C(=O)OC(C)C(=O)Nc2ccc3c(c2)OCCO3)cn1 (centres undefined) | 1% | 15% | 8% | 0% | 9% | · | 16% | ·
CCN(CC)C1CCN(C(=O)c2cc(COc3ccccc3SC)on2)C1 (centres undefined) | -6% | -13% | · | · | 17% | · | -11% | ·
O=C(c1noc2c1CCCC2)N1CCc2c([nH]c3ccccc23)C1c1ccccn1 (centres undefined) | -2% | 4% | ? | -19% | 6% | · | -1% | ·
O=C(C1CCN(c2nnc(N3CCCC3=O)s2)CC1)N1CCN(c2cccc(C(F)(F)F)c2)CC1 | -2% | -8% | · | · | -16% | · | 4% | ·
N#C/C(=C\c1cccn1-c1ccccc1)C(=O)NC1CCCCC1 | -20% | 1% | ? | 4% | -27% | -9% | -9% | -11%
COCCN1C(=O)/C(=C/c2c(OC)cc(OC)cc2OC)C(=O)N(c2ccccc2)C1=O | 0% | -5% | · | · | -8% | · | -2% | ·
Cc1ccccc1-n1ncc2c1CC(C)(C)CC2NC(=O)CSc1ccncc1 (centres undefined) | 4% | -5% | 26% | -5% | -20% | · | -6% | ·
NC(=S)Nc1cccc2cnccc12 | -1% | -8% | -4% | 0% | -24% | -11% | 8% | -5.0%
CCOc1ccc(N=c2oc3cc(O)ccc3cc2C(=O)NCC2CCCO2)cc1 (centres undefined) | 13% | -18% | -7% | -25% | 18% | 6.3µM* | 1% | 2.2%
COc1ccc(N2CCN(CCNC(=O)c3nnc(Cc4c(F)cccc4Cl)o3)CC2)cc1 | 1% | -10%[3.69 µM] | 7% | 6% | 5% | -7% | -6% | -2.6%
N#C/C(C(=O)N1CCCCC1)=C1/N=C(NC(=O)c2ccc(F)cc2)c2ccccc21 | 5% | 3% | -1%[46.1 µM] | ? | 4% | · | -3% | ·
Cc1cc(=O)[nH]c(N/N=C/c2ccc(C)o2)n1 | ? | 4% | 6% | 2% | 9% | 4% | 5% | -9.0%
Cc1nn(Cc2ccc(F)cc2)c(C)c1NC(=O)c1noc2c1CCc1ccccc1-2 | -2% | 1% | ? | -1%[46.1 µM] | 32µM* | 12%&6% | 6% | -4.5%&-6.4%
CCc1ccc(Nc2nnc(SCC(=O)NCCN3C(=O)CSC3=O)s2)cc1 | -10% | 0% | 12% | ? | 52%[activator] | -2% | -1% | -4.0%
Cc1ccc2c(c1)N(C(=O)N1CCC(C(=O)NCc3cccc(Br)c3)CC1)CCO2 | · | · | · | 12%[46.1 µM] | -1% | 7% | · | -2.7%
COc1cccc(CSc2nc3n(n2)C(c2ccc(C(=O)O)cc2)C(C(=O)Nc2ccccc2)=C(C)N3)c1 (centres undefined) | · | · | · | 12%[46.1 µM] | -16% | 18% | · | 2.9%
Cc1ccc(-n2c(N)c(C(=O)N3CCN(C)CC3)sc2=S)cc1 | -4% | -18% | 9% | 11% | 0% | -11% | -16% | 0.7%
Nc1nc(SCc2ccc(Br)cc2)[nH]c(=O)c1-c1ccccc1 | -1% | 5% | 3%[46.1 µM] | 25%[46.1 µM] | -11% | · | 3% | ·
CCCCN(CCCC)S(=O)(=O)c1ccc(C(=O)Nc2sc3c(c2C(N)=O)CCN(CC)C3)cc1 | · | · | · | -3%[46.1 µM] | -19% | 6% | · | -2.1%
Cc1ccc(NC(=S)NNC(=O)c2cccc([N+](=O)[O-])c2)cc1Cl | 0% | 7% | · | · | -12% | · | -14% | ·
O=C(COc1ccc([N+](=O)[O-])cc1)NNC(=O)Nc1ccccc1F | -3% | -12% | ? | -20%[46.1 µM] | -10% | · | -20% | ·
COc1ccc(CCC(=O)Nc2ccc(Br)cn2)cc1 | 4% | -1% | -11% | -23%[14.3 µM] | 12% | -4% | ? | 0.1%

Gathered by group, the compounds so far containing two or more sulfur atoms.
SMILES | SARS PLP yeast | RE007 growth inh | MARV entry inh | LASV entry inh | 2A StopGo | Cruzain noTriton | NS1 function inh | Cruzain Triton
CCc1ccc(Nc2nnc(SCC(=O)NCCN3C(=O)CSC3=O)s2)cc1 | -10% | 0% | 12% | ? | 52%[activator] | -2% | -1% | -4.0%
Cc1ccc(-n2c(N)c(C(=O)N3CCN(C)CC3)sc2=S)cc1 | -4% | -18% | 9% | 11% | 0% | -11% | -16% | 0.7%
CCCCN(CCCC)S(=O)(=O)c1ccc(C(=O)Nc2sc3c(c2C(N)=O)CCN(CC)C3)cc1 | · | · | · | -3%[46.1 µM] | -19% | 6% | · | -2.1%

Next part.
SMILES | SARS PLP yeast | RE007 growth inh | MARV entry inh | LASV entry inh | 2A StopGo | Cruzain noTriton | NS1 function inh | Cruzain Triton
COc1cc2[nH]c(=O)n(Cc3ccc(C(=O)N4CCN(c5cc(Cl)ccc5C)CC4)cc3)c(=O)c2cc1OC | · | · | ? | 4%[46.1 µM] | -27% | -1% | · | -1.9%
COc1ccccc1-c1noc(-c2ccc(NCC3CCCO3)c([N+](=O)[O-])c2)n1 (centres undefined) | · | · | -6%[46.1 µM] | 4%[46.1 µM] | 4% | 10% | · | -11%
O=C(Nc1ccccc1)c1cc2ccccc2[nH]1 | -42% | 1% | ? | 12% | 25% | -1% | -26% | -6.7%
CCOc1ccc(CNC(=O)CC(C)n2nc(C)cc2C)cc1OC (centres undefined) | · | · | · | 10%[46.1 µM] | -7% | 2% | · | 1.8%
COCCn1nnnc1CN(CCc1ccccc1)Cc1cc2cc(OC)ccc2[nH]c1=O | · | 21% | ? | -30% | 1% | · | · | ·
CC(C)C(c1nnnn1C1CCCCC1)N1CCN(C(=O)c2ccco2)CC1 (centres undefined) | -1% | -6% | ? | -19% | 7% | · | 1% | ·
COc1ccc(-c2nc(N)n(S(=O)(=O)c3ccc(C)cc3)n2)cc1 | 1% | 0% | ? | ? | -2% | · | · | ·
COc1ccc(O)c(/C=N/N2CCCCC2)c1 | 3% | -24% | ? | -21%[46.1 µM] | 7% | · | 0% | ·
O=C1CN(C(=O)CSc2ccccn2)c2ccccc2N1 | 2% | 11% | ? | 22%[46.1 µM] | 33% | · | · | ·
Cc1ccc(C(=O)CCC2CCCCC2=O)cc1 (centres undefined) | 0% | -20% | ? | ? | 56%[activator] | -3% | 6% | 6.9%
COc1ccc(OC)c(NC(=O)c2cc3oc4ccccc4c3cc2O)c1 | 0% | 1% | · | · | -16% | · | 5% | ·
Cc1c(NC(=O)CN2CCCC(C)C2)ccc2nsnc12 (centres undefined) | 1% | -6% | 12%[46.1 µM] | -6% | -8% | · | · | ·

Record cards (already shown). Order of values: SARS PLP yeast, RE007 growth inh, MARV entry inh, LASV entry inh, 2A StopGo, Cruzain noTriton, NS1 function inh, Cruzain Triton
COc1ccc(OC)c(NC(=O)c2cc3oc4ccccc4c3cc2O)c1 as listed: 0%, 1%, ·, ·, -16%, ·, 5%, ·
COc1ccc(-c2nc(N)n(S(=O)(=O)c3ccc(C)cc3)n2)cc1 as listed: 1%, 0%, ?, ?, -2%, ·, ·, ·
